PINK1 modulator: A Quantitative High throughput Screen to Identify Chemical Modulators of PINK1 Expression | PINK1 immunofluorescence, high-content cytometry, 24 h | AID 624263, 2012 | Potency, µM (series often up to 76.6 µM), for inactives: at the highest dose activation (PINK1 increase), hits mostly activators | hit rate 0.2% among 410,000; active = well fitted activation curve with a large enough effect; inconclusive = small, poorly fitted or top-dose-only effect; inactive = flat fitted curve, though single readings scatter; cell line not stated here;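 further: potency means the concentration at half of the fitted maximal effect; % of control where 0% means no effect; nearly all actives have a fitted effect of over 65% in size; a mitochondrial uncoupler was the plate control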
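Stable cell line treated 24 h with compounds at 5 concentrations (CCCP controls), then fixed and immunostained for PINK1 plus nuclear and cell stains; PINK1 immunofluorescence quantified by laser-scanning microplate cytometry.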
ClpP mod: qHTS Assay for Activators of ClpP; ATP-dependent Clp protease proteolytic subunit (Bacillus subtilis (strain 168)), P80244; Potency, µM (top dose mostly 57.5 µM), without a hit: at the top dose activity change, negative = active; purified B. subtilis ClpP, FRET peptide cleavage, 20 min; hit rate 1.9% among 340,000; AID 651965, 2013; active = well fitted falling curve with a large enough effect; inconclusive = small, poorly fitted or top-dose-only effect; inactive = no such curve, though single readings can be large or run the other way; further: potency means the concentration at half of the fitted maximal effect; the source files actives as falling curves though it sought activators and does not explain the sign; nearly all actives have a fitted effect of over 65% in size; many hits overshoot -100%
Target sequence (P80244 whole entry, looked up): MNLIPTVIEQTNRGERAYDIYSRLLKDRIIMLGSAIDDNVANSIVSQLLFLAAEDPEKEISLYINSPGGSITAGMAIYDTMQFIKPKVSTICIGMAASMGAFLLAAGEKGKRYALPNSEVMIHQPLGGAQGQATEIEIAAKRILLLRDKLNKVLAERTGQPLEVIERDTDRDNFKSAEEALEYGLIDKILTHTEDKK
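Purified B. subtilis ClpP, 10 microg/mL final in Tris/HCl pH8 with KCl, BSA, glycerol and Tween-20, cleaved an Abz/nitrotyrosine-quenched decapeptide. Fluorescence (ex 320, em 430) was read at 0 and 20 min at room temperature. Delta was normalized to 5.8 microM ADEP and DMSO/no-enzyme controls.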
TRPML1 inh: qHTS for Inhibitors of the Human Mucolipin Transient Receptor Potential 1 (TRPML1); Mucolipin-1 (Homo sapiens), Q9GZU1; hit rate 0.02% among 390,000; activity change, negative = inhibition, % (test concentration not listed); TRPML1-inducible cells, Ca2+ dye fluorescence, FDSS; hits give low values; inhibition of EC80 agonist-evoked calcium signal; in the data active means activity change below about -50%; inconclusive means about -30% to -50%; inactive means above about -30%;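 further: stimulus is agonist 54-4 at its EC80 concentration; on the % scale 0 is the no-effect control and ±100 the full control effect; compound concentration not given in the record; the text of the record puts the active cut at -80%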
Target sequence (Q9GZU1 whole entry, looked up): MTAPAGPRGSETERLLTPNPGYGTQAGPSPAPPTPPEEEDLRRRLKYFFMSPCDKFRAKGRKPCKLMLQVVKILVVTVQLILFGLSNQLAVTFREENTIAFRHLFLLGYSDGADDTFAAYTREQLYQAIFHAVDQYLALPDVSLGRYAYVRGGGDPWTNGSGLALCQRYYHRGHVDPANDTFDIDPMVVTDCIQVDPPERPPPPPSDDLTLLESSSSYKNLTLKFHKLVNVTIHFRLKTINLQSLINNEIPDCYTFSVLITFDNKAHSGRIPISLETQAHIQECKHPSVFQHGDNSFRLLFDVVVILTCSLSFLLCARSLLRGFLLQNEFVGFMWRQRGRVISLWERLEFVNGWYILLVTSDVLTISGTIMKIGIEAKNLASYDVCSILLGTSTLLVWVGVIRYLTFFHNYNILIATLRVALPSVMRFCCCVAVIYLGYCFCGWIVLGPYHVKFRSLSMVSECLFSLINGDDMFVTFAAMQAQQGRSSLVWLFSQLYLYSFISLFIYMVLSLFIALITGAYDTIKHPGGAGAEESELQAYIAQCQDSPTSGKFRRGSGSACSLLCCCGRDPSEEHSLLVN
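Calcium fluorescence in TRPML1-DL cells induced overnight with Tet: a 110 s read after compound pin addition, then a 110 s antagonist read after challenge with 54-4 at 4 uM final (EC80).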
Menin MLL FP FL: qHTS Assay for Inhibitors Targeting the Menin-MLL Interaction in MLL Related Leukemias: Competition With Fluorescein Labeled MLL-derived Peptide; Fluorescence polarization, fluorescein-MLL peptide displacement from menin; FP activity change, % at 61.4 µM; 290,000 tested, under 10 active; inconclusive = falling polarisation curve, or a change in total fluorescence; inactive = total fluorescence flat and polarisation flat or rising; no compound was filed as active; the % refers to the polarisation; negative = inhibition;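 further: % of control where 0% means no effect; inhibitors lower the polarisation; unlabelled MLL peptide was the positive control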
TRPML1 agonist: qHTS for Agonists of the Human Mucolipin Transient Receptor Potential 1 (TRPML1); Mucolipin-1 (Homo sapiens), Q9GZU1; TRPML1-expressing cells, Ca2+ dye fluorescence, FDSS; host cell line not named in the record; reference of the full effect not given here; activation, % (no concentration beside the values); hit rate 0.12% among 410,000; in the data active = activation above about 50%; inconclusive = about 30% to 50%; inactive = below about 30%; further: 0% is about no effect; the text of the record puts the active cut at 80%
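Agonist activity was taken from a 110 s kinetic Ca2+ dye read on the FDSS after pinning compounds onto TRPML1-DL cells. The cells were seeded at 1,500/well with Tet inducer, incubated about 16 h, then dye-loaded at room temperature.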
Sfp inh: qHTS Assay for Inhibitors of Bacillus subtilis Sfp phosphopantetheinyl transferase (PPTase) | Biochemical Sfp PPTase activity, qHTS | Potency, µM, without a hit: max response, negative = inhibition, usual class: inhibitors | hit rate 3.5% among 310,000; active means well fitted inhibition curve with a large enough effect; inconclusive means small, poorly fitted or top-dose-only effect, or another doubt; inactive means no such curve, though single readings can be large or run the other way;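 further: the enzyme is Sfp with the accession as filed and its product quenches rhodamine fluorescence; potency means the concentration at half of the fitted maximal effect; 0% = enzyme reaction without inhibitor and -100% = no enzyme wells; top concentration of the series not given in the record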
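Reaction rates are the 30-min fluorescence difference (ex 525, em 598 nm) in wells containing 15 nM Sfp, 5 uM rhodamine-CoA and 12.5 uM BHQ-2-YbbR at pH 7.6 with 10 mM MgCl2.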
TRPV1 potentiator: HTS Assay for Compounds that Act as Potentiators of the Vanilloid Receptor 1; TRPV1-expressing cells, Fluo-8 calcium influx, capsaicin EC20 potentiation; host cell line not named in the record; control for the full effect not named in the record; potentiation, % at 8.33 µM; hit rate 0.02% among 320,000; active means potentiation above 80%; inconclusive means 30% to 80%; inactive means below 30%; further: 0% is about no effect
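Fluo-8 calcium influx in TRPV1-expressing cells, kinetic read (ex 480/em 520 nm). Compound added and read 3 min for agonist activity, followed by capsaicin at EC20 final and 2 min further read for enhancement.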
* hit, by the source's call; [ ] = another dose, or the depositor's remark.

Screening CCOC(=O)c1c(Nc2ccccc2)sc(/C=C2\C=Nc3ccccc32)c1O returned PINK1 modulator 15%, ClpP mod 0.7%, TRPML1 inh -9, Menin MLL FP FL inconclusive, TRPML1 agonist 0.6, Sfp inh 13% and TRPV1 potentiator 27.
`Clc1cccc(-c2ccc(C=Nc3ccc(N4CCOCC4)cc3)o2)c1Cl` gave PINK1 modulator 3.6%, ClpP mod -1.1%, TRPML1 inh -13, Menin MLL FP FL inconclusive, TRPML1 agonist 1.1, Sfp inh inconclusive and TRPV1 potentiator 13.
Screening CC1CN(C(=O)COc2ccc3c(-c4ccccc4)cc(=O)oc3c2)CC(C)O1 (configuration not stated) returned PINK1 modulator -1.2%, ClpP mod -12%, TRPML1 inh 4, TRPML1 agonist -1.3 and TRPV1 potentiator 0.
`O=C(c1cccs1)N1CCN(S(=O)(=O)c2cccs2)CC1` gave PINK1 modulator -2.6%, TRPML1 inh 39, Menin MLL FP FL -6.2, TRPML1 agonist 0.1, Sfp inh 18% and TRPV1 potentiator 0.
For CCOC(=O)CN(C(=O)CSc1nnc(C)n1-c1ccccc1)c1ccccc1 the results were PINK1 modulator -0.8%[38.3 µM], ClpP mod -3.6%, TRPML1 inh -8, Menin MLL FP FL 0.4, TRPML1 agonist 0.0, Sfp inh 12% and TRPV1 potentiator -1.
Cc1nc2ccc(S(=O)(=O)CCC(=O)Nc3ccc(F)cc3C)cc2s1 was read as PINK1 modulator 0.3%, ClpP mod 1.1%, TRPML1 inh 23 and TRPML1 agonist 0.1.
`C[C@H](CO)N1C[C@H](C)[C@@H](CN(C)S(=O)(=O)c2ccc(-n3cccn3)cc2)OCc2cn(nn2)CCCC1=O` gave PINK1 modulator 4.0%, ClpP mod -2.6%, TRPML1 inh 11 and TRPML1 agonist -0.2.
For O=C(NC(=S)NCCN1CCOCC1)c1ccccc1Cl the results were PINK1 modulator 0.0%, ClpP mod -4.0%, TRPML1 inh -5, Menin MLL FP FL 1.4, TRPML1 agonist 1.1, Sfp inh 20% and TRPV1 potentiator 5.
Screening Cc1cc(C(=O)NCCC(c2ccccc2)c2ccccc2)c(C)o1 returned PINK1 modulator -1.5%, ClpP mod -0.6%, TRPML1 inh 11, Menin MLL FP FL 2.0, TRPML1 agonist 0.7, Sfp inh -9% and TRPV1 potentiator -9.
For CC(=O)c1nn(-c2ccc(OC(F)(F)F)cc2)nc1Nc1ccccc1 the results were PINK1 modulator 0.6%, ClpP mod 2.3%, TRPML1 inh -2 and TRPML1 agonist -0.5.
For CN(C)C(=O)c1cc(C(=O)c2ccc(Cl)cc2Cl)c[nH]1 the results were PINK1 modulator 1.9%, ClpP mod -11%, TRPML1 inh 27, Menin MLL FP FL -1.5, TRPML1 agonist 1.1, Sfp inh 18% and TRPV1 potentiator 21.
CN1CCN(c2ccc(CNC(=O)c3ccc4c(c3)OCCO4)cc2)CC1 was read as PINK1 modulator -2.4%, TRPML1 inh 10, Menin MLL FP FL 0.6, TRPML1 agonist -0.2, Sfp inh 11% and TRPV1 potentiator 0.
`CC(=O)NC(Cc1ccccc1)c1ccc2c(c1)OCCCO2` (configuration not stated) gave PINK1 modulator -1.7%, ClpP mod -0.9%, TRPML1 inh 2, TRPML1 agonist 0.2, Sfp inh 9% and TRPV1 potentiator 4.
CCOC(=O)c1c(NC(=O)C2c3ccccc3Oc3ccccc32)sc2c1CCC(CC)C2 (configuration not stated) was read as PINK1 modulator 3.8%, ClpP mod -1.0%, TRPML1 inh 2 and TRPML1 agonist 0.8.
For Cc1ccc(NC(=O)N2CCCC2C(=O)Nc2nnc(C(C)C)s2)cc1 (configuration not stated) the results were PINK1 modulator 2.5%, TRPML1 inh -2, Menin MLL FP FL -0.4, TRPML1 agonist 0.4, Sfp inh 29% and TRPV1 potentiator 4.
Screening CCOC(=O)C(=O)NCC(c1cccnc1)N1CCN(c2ccccc2)CC1 (configuration not stated) returned PINK1 modulator -0.2%, ClpP mod -0.7%, TRPML1 inh 9 and TRPML1 agonist 1.0.
CCc1nn2c(=O)cc(COc3ccc(/C=C4\C(=N)N5N=C(CC(C)C)SC5=NC4=O)cc3)nc2s1 was read as PINK1 modulator 0.5%, ClpP mod -1.3%, TRPML1 inh -14, Menin MLL FP FL 5.4, TRPML1 agonist -0.1, Sfp inh -4% and TRPV1 potentiator 1.
For CCOc1ccc(C(=O)NCC(=O)OCCCOC(=O)CNC(=O)c2ccc(OCC)cc2)cc1 the results were PINK1 modulator 1.6%, ClpP mod -4.0%, TRPML1 inh -3, TRPML1 agonist 0.0, Sfp inh 6% and TRPV1 potentiator 7.
For COc1cccc(C(c2nnnn2C2CCCC2)N2CCN(C/C=C/c3ccccc3)CC2)c1OC (configuration not stated) the results were PINK1 modulator inconclusive, ClpP mod -0.2%, TRPML1 inh 12 and TRPML1 agonist 5.8.
For Cc1ccc(S(=O)(=O)n2c([N+](=O)[O-])cnc2C)c(C)c1C the results were PINK1 modulator 1.2%, ClpP mod 1.7%, TRPML1 inh -8, Menin MLL FP FL -2.7, TRPML1 agonist 0.3, Sfp inh -8% and TRPV1 potentiator -2.
`COc1cccc(OC)c1OCCCOc1ccc(C)cc1Br` gave PINK1 modulator 17%, ClpP mod -20%, TRPML1 inh -13, Menin MLL FP FL 2.7, TRPML1 agonist 1.5, Sfp inh inconclusive and TRPV1 potentiator -1.
For COc1cccc(C(=O)Nc2ccc(NC(=O)Cc3ccccc3)cc2)c1 the results were PINK1 modulator 5.4%, TRPML1 inh -8, Menin MLL FP FL -1.2, TRPML1 agonist 0.6, Sfp inh 10% and TRPV1 potentiator -7.
For O=C(c1cccs1)N1CCCC(c2nc3c(nnn3Cc3c(Cl)cccc3Cl)c(=O)[nH]2)C1 (configuration not stated) the results were PINK1 modulator 3.5%, TRPML1 inh 0, TRPML1 agonist 1.2, Sfp inh -5% and TRPV1 potentiator 6.
c1ccc(CCN=C2CCCc3c2[nH]c2ccccc32)cc1 was read as PINK1 modulator 0.0%, TRPML1 inh -15, Menin MLL FP FL 1.5, TRPML1 agonist 0.5, Sfp inh -6% and TRPV1 potentiator -4.

For reference, some entries already given.
For COc1cccc(C(=O)Nc2ccc(NC(=O)Cc3ccccc3)cc2)c1 the results were PINK1 modulator 5.4%, TRPML1 inh -8, Menin MLL FP FL -1.2, TRPML1 agonist 0.6, Sfp inh 10% and TRPV1 potentiator -7.
For O=C(c1cccs1)N1CCCC(c2nc3c(nnn3Cc3c(Cl)cccc3Cl)c(=O)[nH]2)C1 (configuration not stated) the results were PINK1 modulator 3.5%, TRPML1 inh 0, TRPML1 agonist 1.2, Sfp inh -5% and TRPV1 potentiator 6.

Remaining list, next part
Cc1ccc(S(=O)(=O)NC2CCC(C(=O)O)CC2)cc1 (configuration not stated) was read as PINK1 modulator -2.8%, ClpP mod -3.7%, TRPML1 inh -6, Menin MLL FP FL 2.1, TRPML1 agonist 0.0, Sfp inh 15% and TRPV1 potentiator 5.
For O=C(CSc1nnc(Nc2ccccc2F)s1)NCC1CCCO1 (configuration not stated) the results were PINK1 modulator -1.2%, TRPML1 inh 15 and TRPML1 agonist 1.7.
Screening Cc1nc(-c2ccccc2)nc(-c2ccccc2)n1 returned PINK1 modulator 9.7%, ClpP mod -0.8%, TRPML1 inh -6, TRPML1 agonist -0.1 and TRPV1 potentiator -5.
O=C(NNc1ccc(Cl)cc1)c1cccs1 was read as PINK1 modulator 0.7%, TRPML1 inh -17, Menin MLL FP FL 1.6, TRPML1 agonist -0.1, Sfp inh -1% and TRPV1 potentiator 5.
C/C(CC(=O)NCc1ccco1)=N\NC(=O)CC#N was read as PINK1 modulator -1.2%, ClpP mod -1.1%, TRPML1 inh 0, Menin MLL FP FL -5.9, TRPML1 agonist 0.9, Sfp inh 3% and TRPV1 potentiator 4.
Screening CCN(CC(=O)NCCCN1CCOCC1)S(=O)(=O)c1cc(Cl)ccc1Cl returned PINK1 modulator 0.7%, TRPML1 inh -3, Menin MLL FP FL -3.5, TRPML1 agonist 0.3, Sfp inh 10% and TRPV1 potentiator 27.
Screening Cc1cc(Br)ccc1NC(=O)c1ccc(-n2cncn2)c([N+](=O)[O-])c1 returned PINK1 modulator 5.4%, ClpP mod -16%, TRPML1 inh -3, TRPML1 agonist -0.3 and TRPV1 potentiator -7.
For CCCCC[C@@H](C)N1C[C@@H](COCc2ccccc2)Oc2cc(N3CCC[C@H]3CO)ccc2S1(=O)=O the results were PINK1 modulator 11%, ClpP mod inconclusive and TRPML1 agonist -0.2.
For COC(=O)Nc1nc(-c2cc(Cl)ccc2Cl)cs1 the results were PINK1 modulator 7.2%, ClpP mod -0.3%, TRPML1 inh -14, Menin MLL FP FL -0.1, TRPML1 agonist -1.5, Sfp inh 25% and TRPV1 potentiator -6.
Screening Cc1ccc2c(c1)NC(=O)C(N1CCOCC1)(C(F)(F)F)O2 (configuration not stated) returned PINK1 modulator 1.1%, ClpP mod -1.8%, TRPML1 inh 1, Menin MLL FP FL 2.3, TRPML1 agonist -0.1, Sfp inh 18% and TRPV1 potentiator -9.
Screening CCNc1ccccc1C(=O)O returned PINK1 modulator -0.7%, ClpP mod 4.3%, TRPML1 inh -10, Menin MLL FP FL 5.9, TRPML1 agonist -0.2, Sfp inh 2% and TRPV1 potentiator 19.
Screening COc1ccc(CCNC(=O)CCSc2nc(-c3ccco3)cc(C(F)(F)F)n2)cc1OC returned PINK1 modulator -2.5%, ClpP mod 2.4%, TRPML1 inh 14, Menin MLL FP FL 3.7, TRPML1 agonist 1.9, Sfp inh -15% and TRPV1 potentiator -6.
CC(C)CN(C(=O)COC(=O)C(C)N1C(=O)c2ccccc2C1=O)c1c(N)n(Cc2ccccc2)c(=O)[nH]c1=O (configuration not stated) was read as PINK1 modulator -0.5%, ClpP mod -2.8%, TRPML1 inh -15, TRPML1 agonist 0.1 and TRPV1 potentiator 1.

Screening results from PubChem.

This is a random part of the collection; overall some 4.4% were active at least once.
